Source: PubChem
SARS PLP yeast – blocks SARS-CoV papain-like protease in a yeast assay. S. cerevisiae expressing SARS-CoV PLpro, growth rescue; control for the full effect not named in the record. Potency, µM (highest dose often 32.9 µM), without a hit: at the highest dose activity, positive = growth rescue. 0.19% of 330,000 active; active means well fitted rising curve with a large enough effect; inconclusive means small, poorly fitted or top-dose-only effect; inactive means no such curve, though single readings can be large or run the other way; note: 0% is about no effect; nearly all actives have a fitted effect of over 55% in size; growth read by luminescence after 48 h
RE007 growth inh – less growth of the S. pombe RE007 Vpr strain. S. pombe RE007 Vpr strain, BacTiter-Glo ATP luminescence, 24 h; control for the full effect not named in the record. AID 651644. 0.21% of 360,000 active. Potency, µM (titrated, usually from 92.2 µM), without a hit: top-dose activity change, negative = less growth; active = well fitted falling curve with a large enough effect; inconclusive = small, poorly fitted or top-dose-only effect; inactive = no such curve, though single readings can be large or run the other way;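 note: % is set by controls: 0 for no effect and ±100 for the full control effect; nearly all actives have a fitted effect of over 50% in size; the assay follows cell death caused by Vpr and the record does not say whether a fall means rescue or toxicity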
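Fission yeast RE007 carrying one integrated HIV-1 vpr copy, seeded at OD 0.01 in PMG+AL medium with 23 nL pinned compound. Grown 24 h at 30 degrees; viability read by BacTiter-Glo luminescence after 5 min.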
2A StopGo – FMDV 2A StopGo reporter, luciferase signal | human cells with a luciferase reporter of 2A StopGo recoding; control for the full effect not named in the record | Potency, µM (top dose mostly 57.9 µM), for the others: top-dose signal change, negative = less light | 1.2% of 410,000 active; active = well fitted falling curve with a large enough effect; inconclusive = small, poorly fitted or top-dose-only effect; inactive = no such curve, though single readings can be large or run the other way; tested in HEK293T cells; note: % is set by controls: 0 for no effect and ±100 for the full control effect; nearly all actives have a fitted effect of over 45% in size; luciferase light after 4 h
* hit, by the source's call; ? = inconclusive; & = joins results of further samples; [ ] = another dose, or the depositor's remark. Potency is the fitted concentration of half-maximal effect.

(1) C=CC[C@H](CC(=O)N(CCO)Cc1ccccc1)C(=O)NC[C@H](OC(=O)[C@@H](CC=C)Cc1ccc(F)cc1)c1ccccc1
(2) O=S(=O)(NCc1ccccc1)c1ccccc1NCc1ccc(Cl)cc1
(3) C=CC[C@@H](CC(=O)OC(C)(C)C)C(=O)OC[C@@H]1CCCN1C(=O)[C@@H](CC=C)CC(=O)N[C@H](CO)Cc1ccccc1
(4) COc1ccc([C@H]2CC(=O)C=C(/C=C/c3ccc(C(F)(F)F)cc3)C2)cc1
(5) Cc1cccc(C(CC(=O)NCCc2ccccc2)c2ccccc2)c1O (stereo not given)
(6) CCCn1c(N)c(C(=O)CSc2nnc(C3CC3)n2-c2ccccc2)c(=O)[nH]c1=O
(7) O=C(COC(=O)c1c[nH]c2ccccc12)NC1CCCC1
(8) O=C(CSc1nnc(NC2CCCCC2)s1)N1CCOCC1
Screen / compound no. | 1 | 2 | 3 | 4 | 5 | 6 | 7 | 8
RE007 growth inh | 14.2% | 7.5% | 1.7% | -7.8% | 18.4% | -12.7% | 0.8% | -16.3%
2A StopGo | 35.5µM* | 67.2%[activator] | ? | 21.3% | 6.0% | -9.7% | 8.2% | 10.1%
SARS PLP yeast | -37.5% | 8.1% | -3.2% | -1.0% | -0.6% | -6.5% | 4.3% | -1.7%

(9) CCCSc1ccc([C@@H]2[C@@H]3C(=O)N(C)C(=O)[C@@H]3[C@]3(C(=O)OC)CCCCN23)cc1OC
(10) O=C(NCc1cccc(Cl)c1)C1=CC=CN2CCS(=O)(=O)N=C12
(11) C=C1/C=C(\C)C(C)(O)CC(O)CC(=O)C(O)C(O)C(C)CC(C)OC(=O)/C(C)=C/CC/C=C/C(OC)C(O)CC(C)C1 (stereo not given)
(12) CN(C)C(=O)CSc1nnc(Cc2ccccc2)n1CC1CCCO1 (stereo not given)
(13) O=C1C(Cc2ccccc2)Nc2ncnc(N3CCOCC3)c2N1Cc1ccccc1 (stereo not given)
(14) COc1cccc(NC(=O)CN(C)CC(=O)NCc2ccco2)c1
(15) CN(Cc1ccccc1)C(=O)C(C(=O)c1ccc(F)cc1)n1cc(Cl)ccc1=O (stereo not given)
(16) O=C(CCCNS(=O)(=O)c1cccc2nsnc12)NCCN1CCN(c2ccccc2F)CC1
Screen / compound no. | 9 | 10 | 11 | 12 | 13 | 14 | 15 | 16
RE007 growth inh | -8.4% | 3.4% | 2.9% | 11.7% | -6.9%&3.6% | 2.8% | 0.7% | -7.5%
2A StopGo | -26.3% | -6.3% | -27.8% | 7.5% | 0.0%&-27.1% | 0.0% | 27.8% | -4.8%
SARS PLP yeast | -2.2% | 3.6% | -0.3% | 8.2% | -9.2% | 3.9% | -1.0% | -5.0%

(17) CC(=O)OC(C)(C)/C=C/C(=O)[C@](C)(O)C1[C@H](O)C[C@@]2(C)C3CC=C4C(C=C(O[C@@H]5O[C@H](CO)[C@@H](O)[C@H](O)[C@H]5O)C(=O)C4(C)C)[C@]3(C)C(=O)C[C@]12C (stereo not given in full)
(18) CCOC(=O)c1oc2ccccc2c1COC(=O)C(C)NC(=O)c1ccco1 (stereo not given)
(19) CCC(CO)Oc1cc(NC(=O)c2cccc(OC)c2)c2ncn(C(C)C)c2c1 (stereo not given)
(20) COc1ccc2c3n([n+]([O-])c2c1)CCN=C3c1ccc(C)cc1
(21) O=C(COC(=O)C12CC3CC(CC(O)(C3)C1)C2)Nc1ccc(Br)cc1F
(22) CC(OC(=O)c1cccc(S(=O)(=O)N2CCOCC2)c1)C(=O)NC1CCCCC1C (stereo not given)
(23) N#Cc1ccccc1OCC(=O)OCC(=O)c1ccc[nH]1
(24) Nc1nc(CSc2ncn[nH]2)nc(Nc2ccc(F)cc2)n1
Screen / compound no. | 17 | 18 | 19 | 20 | 21 | 22 | 23 | 24
RE007 growth inh | 7.5% | 9.4% | -16.8% | 2.6% | -1.4% | -9.0% | -0.4% | -3.4%
2A StopGo | 0.0% | -5.5% | -23.9% | 53.0%[activator] | 60.2%[activator] | -10.1% | -4.3% | 32.7%[activator]
SARS PLP yeast | 4.6% | 0.7% | 4.8% | 1.3% | -6.5% | 2.5% | 6.2% | 1.0%

Three records picked at random from the list so far, as already listed:
(24) Nc1nc(CSc2ncn[nH]2)nc(Nc2ccc(F)cc2)n1
(22) CC(OC(=O)c1cccc(S(=O)(=O)N2CCOCC2)c1)C(=O)NC1CCCCC1C (stereo not given)
(23) N#Cc1ccccc1OCC(=O)OCC(=O)c1ccc[nH]1
Screen / compound no. | 24 | 22 | 23
RE007 growth inh | -3.4% | -9.0% | -0.4%
2A StopGo | 32.7%[activator] | -10.1% | -4.3%
SARS PLP yeast | 1.0% | 2.5% | 6.2%

Other compounds follow:
(25) COc1ccc(C2=NOC(Cn3nc(C(=O)NCc4ccc5c(c4)OCO5)cc3-c3ccccc3)C2)cc1 (stereo not given)
(26) COc1ccc2[nH]c3c(c2c1)CCN1C(=O)C(CC(=O)NCc2ccco2)C[C@H](C(=O)N2CCCCC2)[C@@]31C (stereo not given in full)
(27) CCN(c1ccccc1)S(=O)(=O)c1ccc(C(=O)Nc2cccc(C)n2)cc1
(28) CN(C)C(=O)CCc1ccc2c3c([nH]c2c1)[C@]1(CCC2CCCC2)[C@@H](C(=O)N2CCOCC2)C[C@H](CC(=O)NCC24CC5CC(CC(C5)C2)C4)C(=O)N1CC3
(29) O=C(NC(Cc1ccccc1)C(=O)O)/C(=C/c1ccc(Cl)cc1)NC(=O)c1ccccc1 (stereo not given)
(30) CN(Cc1cccc(F)c1)C(=O)c1cc(S(=O)(=O)N2CCOCC2)ccc1N1CCCC1
(31) COC(=O)[C@H](Cc1ccc(O)cc1)NC(=O)Cn1cnc2c(NCc3ccccc3)ncnc21
(32) CCc1cc(-c2nc(N)ncc2-c2csc(C)n2)c(O)cc1OC
Screen / compound no. | 25 | 26 | 27 | 28 | 29 | 30 | 31 | 32
RE007 growth inh | 14.5% | -2.5% | -3.7% | 3.4% | 1.0% | -1.5% | -0.4% | -3.7%
2A StopGo | -14.6% | -20.4% | ? | ? | -19.4% | -13.7% | -7.0% | -12.6%
SARS PLP yeast | 1.8% | 13.3% | 2.8% | 3.3% | 2.2% | -4.7% | 1.5% | -0.2%

(33) O=C(CCNS(=O)(=O)c1ccccc1F)NC1CCCCCC1
(34) CCOC(=O)C1CCCCN1C(=O)/C(=C/c1ccc(OC)cc1)c1ccc(OC)c(OC)c1 (stereo not given)
(35) CN1CCN(S(=O)(=O)NC[C@H]2O[C@@H](n3cnc4c(N)ncnc43)[C@H](O)[C@@H]2O)CC1
(36) Cc1ccc(Cl)cc1NC(=O)COC(=O)CC1CCCCC1
(37) CN(Cc1ccccc1)C(=O)c1[nH]cnc1C(=O)Nc1cccc(Cl)c1
(38) C[C@H]1CCC(=O)N([C@H](CSc2ccc(Br)cc2)Cc2ccccc2)CC1
(39) O=C(CN1CCCC1c1cccs1)N1CCN(S(=O)(=O)c2cccc(F)c2)CC1 (stereo not given)
(40) COc1cc(OC)c2c(-c3cccc(-c4ccc(OC)c(OC)c4)c3)cc(=O)oc2c1
Screen / compound no. | 33 | 34 | 35 | 36 | 37 | 38 | 39 | 40
RE007 growth inh | -2.2% | -3.7% | 9.7% | -22.2% | 2.2% | 13.1% | -6.5% | 1.4%
2A StopGo | 3.6% | 23.3% | 6.5% | -22.8% | 26.3% | -20.4% | 0.0% | ?
SARS PLP yeast | -4.5% | 1.1% | 6.8% | -7.2% | 1.4% | 3.9% | -30.4% | 11.3%

(41) O=C(CSc1ccc(-c2ccncc2)nn1)c1ccccc1
(42) CN(CC(=O)Nc1cccc(F)c1)C(=O)Cn1c(=O)oc2ccccc21
(43) COc1ccc(N(C)S(=O)(=O)c2cccc(C(=O)Nc3nnc(C)s3)c2)cc1
(44) CCC(OC(=O)c1nsc(Cl)c1Cl)C(=O)NCCOC (stereo not given)
(45) COC(=O)[C@]1(C)N[C@H](c2ccc(-c3cccc(Cl)c3)cc2)[C@@H]2C(=O)N(C)C(=O)[C@@H]21
(46) COc1ccc(C2CC(=O)c3cnn(-c4nc(C)cc(C)n4)c3C2)cc1 (stereo not given)
(47) CCN(C(=O)COC(=O)CCC(=O)c1cccs1)C1CCCCC1
(48) CCN(C[C@H]1N[C@@](CC)(C(=O)OC)[C@H]2C(=O)N(Cc3ccccc3)C(=O)[C@@H]12)C(=O)c1ccc(C(C)(C)C)cc1
Screen / compound no. | 41 | 42 | 43 | 44 | 45 | 46 | 47 | 48
RE007 growth inh | 6.3% | -11.0% | 0.8% | 1.9% | 21.0% | -8.4% | 19.2% | -7.6%
2A StopGo | ? | -14.3% | 0.0% | 31.2%[activator] | -21.6% | -28.1% | -11.0% | ?
SARS PLP yeast | -4.4% | 2.4% | 2.6% | -3.1% | 8.0% | -3.7% | 1.3% | 2.4%

(49) CCNC(=O)Cc1ccc(S(=O)(=O)N2CCOCC2)s1
(50) CN(CC(=O)NC(=O)NC1CCCCC1)c1ccccc1
(51) COc1ccc2c(-c3ccc(OCCN4CCCCC4)cc3)c(-c3ccccc3OC)sc2c1
(52) COC(=O)C1=C(C)N(c2ccc(C)c(C)c2)/C(=C/c2ccc(O)cc2)C1=O
(53) O=C(NCCc1c[nH]c2ccccc12)OCCCCOC(=O)NCCc1c[nH]c2ccccc12
(54) CN(C)C(CNC(=O)CN1C(=O)NC2(CCCC2)C1=O)c1ccccc1 (stereo not given)
(55) CC1CCC(NC(=O)c2cc3ccccc3cc2O)CC1 (stereo not given)
(56) C=CC[C@@H](CC(=O)N[C@@H](CO)Cc1ccccc1)C(=O)N[C@@H](COC(=O)[C@@H](CC=C)Cc1ccc(F)cc1)Cc1c[nH]c2ccccc12
Screen / compound no. | 49 | 50 | 51 | 52 | 53 | 54 | 55 | 56
RE007 growth inh | -18.3% | -1.7% | -15.3% | 14.9% | -7.7% | 6.5% | ? | -11.5%
2A StopGo | -10.4% | 0.0% | 0.0% | -13.0% | ? | -16.4% | 7.2% | -26.3%
SARS PLP yeast | 0.1% | -4.2% | -6.7% | -6.0% | -4.2% | 2.0% | -0.7% | -2.1%

(57) CCCCC(=O)Nc1ccc(C(=O)NNC(=S)NC(=O)c2ccco2)cc1
(58) CN(CC(=O)Nc1ccc(F)c(F)c1F)C(=O)c1ccc(-n2cncn2)cc1
(59) CCOc1ccccc1OCC(=O)OC(C)C(=O)Nc1ncc(Cl)cc1Cl (stereo not given)
(60) COc1ccc(-c2cc3ncccc3cn2)cc1
(61) CCc1ccc(Nc2nnc(SCC(=O)c3c(N)n(C4CC4)c(=O)[nH]c3=O)s2)cc1
(62) Cc1cccc(N2O[C@H]3C=CC2CCCC3)n1
(63) C[C@]12c3[nH]c4cc(-c5ccco5)ccc4c3CCN1C(=O)[C@@H](CC(=O)NCCC1=CCCCC1)C[C@@H]2C(=O)N1CCOCC1
(64) C[C@H](CO)N1C[C@H](C)[C@H](CN(C)CC2CC2)Oc2ccc(NC(=O)CCN3CCOCC3)cc2C1=O
Screen / compound no. | 57 | 58 | 59 | 60 | 61 | 62 | 63 | 64
RE007 growth inh | -6.4% | -6.8% | -9.5% | -18.2% | 9.4% | -6.3% | -12.5% | -0.7%
2A StopGo | -6.7% | -17.1% | 7.2% | 21.2% | 35.6%[activator] | 37.6%[activator] | -16.1% | -17.3%
SARS PLP yeast | 0.2% | -24.8% | 3.4% | 6.1% | 6.2% | -0.7% | 2.1% | 4.1%

The closing four entries of the section above lead into the next:
(61) CCc1ccc(Nc2nnc(SCC(=O)c3c(N)n(C4CC4)c(=O)[nH]c3=O)s2)cc1
(62) Cc1cccc(N2O[C@H]3C=CC2CCCC3)n1
(63) C[C@]12c3[nH]c4cc(-c5ccco5)ccc4c3CCN1C(=O)[C@@H](CC(=O)NCCC1=CCCCC1)C[C@@H]2C(=O)N1CCOCC1
(64) C[C@H](CO)N1C[C@H](C)[C@H](CN(C)CC2CC2)Oc2ccc(NC(=O)CCN3CCOCC3)cc2C1=O
(65) C[C@H](NC(=O)c1ccco1)C(=O)NNC(=O)COc1cccc(C(F)(F)F)c1
(66) CC(C)Sc1nsc2nc(=O)c(/C=C3\C=Nc4ccccc43)c(N)n12
(67) COc1cc(C(=O)OC(C)C(=O)N2CCCC2)cc2c1OCCO2 (stereo not given)
(68) COc1ccc([C@@H](NC(=O)OC(C)(C)C)C(=O)OC(C)(C)C)cc1
(69) CCN(CC(=O)Nc1ccc(NC(C)=O)cc1)C(=O)c1ccc(COc2ccccc2)o1
Screen / compound no. | 61 | 62 | 63 | 64 | 65 | 66 | 67 | 68 | 69
RE007 growth inh | 9.4% | -6.3% | -12.5% | -0.7% | -5.5% | -4.4% | 2.6% | 5.7% | -8.0%
2A StopGo | 35.6%[activator] | 37.6%[activator] | -16.1% | -17.3% | -1.3% | -13.1% | -6.3% | -11.8% | -19.3%
SARS PLP yeast | 6.2% | -0.7% | 2.1% | 4.1% | 1.5% | -0.5% | -0.7% | -2.4% | 0.6%

The list is partial; the hit share may differ from the screen's.
